Compound activity: PubChem BioAssay, National Center for Advancing Translational Sciences (NCATS)
HPGD inh = qHTS Assay for Inhibitors of HPGD (15-Hydroxyprostaglandin Dehydrogenase); 15-hydroxyprostaglandin dehydrogenase [NAD(+)] (Homo sapiens), P15428; purified HPGD, NADH fluorescence kinetic, PGE2 substrate; Potency, µM, for the others: top-dose activity change, negative = inhibition, most hits filed as inhibitors; 150,000 tested, 4.3% active; AID 894, 2007; active = well fitted inhibition curve with a large enough effect (not every such curve was filed as active); inconclusive = small, poorly fitted or top-dose-only effect, or another doubt; inactive = no such curve, though single readings can be large or run the other way;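 note: top concentration of the series not given in the record; plate controls included wells without enzyme; inactives centre near -10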
Target sequence (P15428 whole entry, looked up): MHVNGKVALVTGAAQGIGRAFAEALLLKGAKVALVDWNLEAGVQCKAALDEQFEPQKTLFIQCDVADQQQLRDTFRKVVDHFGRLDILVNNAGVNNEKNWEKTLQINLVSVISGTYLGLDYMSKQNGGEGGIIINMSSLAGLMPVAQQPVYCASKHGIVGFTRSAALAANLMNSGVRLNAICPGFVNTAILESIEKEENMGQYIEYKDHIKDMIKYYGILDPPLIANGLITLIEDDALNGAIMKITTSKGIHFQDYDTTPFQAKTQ
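NADH formation kinetics: reaction with 30 uM PGE2 and 1 mM NAD+ (final), 20 nM enzyme, Tris-HCl pH 8 with Tween 20, after 15 min compound preincubation at room temperature. Fluorescence change, last versus first of five reads.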
* marks the source's active call; other numbers are inactive results; ? = inconclusive; & = joins results of further samples. % is set by controls: 0 for no effect and ±100 for the full control effect; potency is the fitted concentration of half-maximal effect. Not all compounds are listed. The share of hits here may be higher or lower than overall.

HPGD inh,mol
-25%,Cc1ccc(S(=O)(=O)/N=C(\Sc2ccccc2)c2ccccc2)cc1
-8%,COc1cccc(Cn2nnc(C(=O)NCCc3ccc(Cl)cc3)c2N)c1
8.9µM*,O=[N+]([O-])c1cc(/C=N\Nc2nccs2)ccc1O
-14%,CCOc1cc(C2NC(=O)NC(O)(C(F)(F)F)C2C(=O)c2ccc(Cl)cc2)ccc1O (configuration not stated)
-1%,O=C(CSC1CCCCC1)Nc1nccs1
-21%,NC(=S)N/N=C/c1coc2cc(Cl)ccc2c1=O
-15%,CC(=O)C(N=Nc1ccccc1)(Sc1nnc(-c2ccccc2)n1-c1ccccc1)C(C)=O
-21%,Cc1ccc(CNC(=O)C2(CC(C)C)C=CCN2C(=O)c2ccccc2)o1 (configuration not stated)
-5%,Cc1ccc(Cl)cc1NC(=O)c1ccc(Cn2cc(Cl)cn2)cc1
-14%,Cc1cccc(N2CCN(C(=O)CCn3c(=O)[nH]c4ccccc4c3=O)CC2)c1C
?,Brc1ccc(C2=NCCC(c3ccccc3)O2)cc1 (configuration not stated)
0%,S=C(Nc1ccccc1)Nc1ccc(OCc2ccc(Cl)cc2Cl)cc1
7.9µM*,CN(c1ccc(OCc2nnc(-c3ccccc3)o2)cc1)S(=O)(=O)c1ccccc1
?,O=S(=O)(c1ccc(NC(=S)N/N=C/c2ccc(N3CCOCC3)cc2)cc1)N1CCOCC1
-7%&-4%,CCN(CC)CCNC(=O)c1cc(Br)c(N)cc1OC
-6%,CC(NC(=O)CSc1nnc(-c2cccc(S(=O)(=O)N3CCCCC3)c2)o1)C12CC3CC(CC(C3)C1)C2 (configuration not stated)
-28%,Cc1ccc(-n2c(C)cc(C(=O)CSc3nnnn3C)c2C)cc1
0%,O=S(=O)(c1cccs1)N1CCN(c2ncccn2)CC1
?,O=c1c(-c2ccc3c(c2)OCCO3)coc2c(CN3CCOCC3)c(O)ccc12
-7%,Cc1ccccc1OCC(=O)NC(=S)Nc1ccc2c3c(cccc13)CC2
-16%,CCCCC(=O)c1c(O)c2ccccc2oc1=O
-4%,Cc1ccc(S(=O)(=O)N2CCN(C(C(=O)Nc3ccc(F)cc3)c3ccccc3)CC2)cc1 (configuration not stated)
?,Nc1ccc2[nH]ncc2c1
-7%,CCCSc1nnc(N2C(=O)CC(c3ccsc3)C3=C2CCCC3=O)s1 (configuration not stated)
-12%,O=C(O)c1ccc(NCc2ccc3c(c2)OCO3)cc1
-28%,COc1ccc(OC)c(C2C(C#N)=C(N)Oc3c2c(C)nn3-c2ccc(C)cc2)c1 (configuration not stated)
?,CCn1ncc(C2=NOC(C(=O)NCc3ccccc3)C2)c1C (configuration not stated)
-11%,O=C(Nc1ccc(OC(F)(F)F)cc1)c1n[nH]c(Cn2cncn2)n1
-10%,CCC(C)c1ccc(O)c(/C=N/O)c1 (configuration not stated)
-7%,O=C(Nc1ccccc1C(=O)OCn1nnc2ccccc2c1=O)c1ccco1
-14%,Cc1ccc2c(C)nc(/N=C(\N)NC(=O)N3c4ccccc4Sc4ccccc43)nc2c1
-15%,Cc1ccc(CNC(=O)COC(=O)c2c(C)noc2C)cc1
-11%,Cc1c(C#N)c2ncn(CC#N)c(=O)c2n1-c1ccccc1
-7%,Clc1ccccc1OCCN1CCCCC1
-16%,Cc1ccc(-n2nnnc2SCC(=O)NCCC2=CCCCC2)c(C)c1
-9%,Cc1ccc2[nH]c(=O)c(C(c3nnnn3CC3CCCO3)N3CCCc4ccccc43)cc2c1 (configuration not stated)
-27%,Cn1c(SCC(=O)NC2CCCC2)nc2cccnc21
-17%,CS(=O)(=O)N(CC(=O)NCc1ccccn1)c1ccc2c(c1)OCCO2
-8%,Cc1nn(-c2ccccc2)c(Cl)c1/C=N/NS(=O)(=O)c1ccc(Br)cc1
-14%,CCC(c1nnnn1C(C)(C)CC)N(CCN1CCOCC1)Cc1cc2cc(C)ccc2[nH]c1=O (configuration not stated)
-6%,COc1cc2c(C(=O)N3CCN(c4ccccc4C)CC3)c(C)oc2cc1Br
-11%,CCN1CCN(C(c2cc3cccc(C)c3[nH]c2=O)c2nnnn2Cc2ccccc2)CC1 (configuration not stated)
-20%,O=C(CCCn1c(=S)[nH]c2ccsc2c1=O)NCc1ccco1
?,COc1cccc(-c2nn(C)c3sc(C(=O)NCc4ccco4)cc23)c1
-4%,O=C(NCCc1ccccc1)C1CCCN1C(=O)Nc1ccc(F)cc1 (configuration not stated)
-8%,CCn1c(SCc2ccc(C)cc2)nnc1C1CCN(S(=O)(=O)c2ccc(OC)cc2)CC1
?,CC(=O)c1ccc2c(ccc3ccccc32)c1
-23%,COC(=O)c1ccc(-n2nnnc2SCC(=O)Nc2cc(OC)ccc2OC)cc1
-7%,O=C(Cc1cccs1)Nc1ccon1
-22%,CCCCNC(=O)c1c(C)cc(=O)oc1C

Additional results follow.
HPGD inh,mol
-8%,COc1cccc([C@@H]2Oc3ccc(OC)cc3C(=O)[C@H]2OC(=O)NS(=O)(=O)c2ccc(C)cc2)c1
-13%,CC(C)(C)OC(=O)N[C@@H](Cc1ccccc1)c1nnc(SCC(=O)c2ccc(Cl)cc2)o1
-8%,COc1ccc(NC(=O)c2nn(C34CC5CC(CC(C5)C3)C4)cc2[N+](=O)[O-])cc1
0%,O=S(=O)(c1ccc(S(=O)(=O)N2CCCN(Cc3ccccc3)C2)cc1)N1CCCCCC1
-11%,O=C(O)c1cccc(-c2nnn(Cc3ccccc3Cl)n2)c1
-5%,Nc1nnnn1/N=C/c1cccc(O)c1
-9%,O=C(CSc1nc(C2CC2)nc2ccccc12)Nc1ccc2c(c1)OCCO2
-14%,COc1ccc(/C=C2\SC(=O)N(CCNC(=O)Cn3cnnn3)C2=O)cc1
-16%,O=C(Nc1ccc(Br)cc1F)c1sccc1-n1cccc1
-7%,COCCCN1CN(Cc2ccccc2)CNC1=S
1%,CCNc1nc(NCC)n2c(SCC(=O)NC34CC5CC(CC(C5)C3)C4)nnc2n1
-6%,Cc1ccccc1C(=O)NC1CCN(Cc2nnnn2C2CCCC2)CC1
-11%,Cc1sc(-c2ccncc2)nc1OC(=O)c1ccc(Cl)cc1
-11%,C=CCn1c(COc2ccc(OC)cc2)nnc1SCn1nnc2ccccc2c1=O
-14%,Cc1ccc(Cn2ncc3c(N4CCN(Cc5ccc(Cl)cc5)CC4)ncnc32)cc1
-16%,O=c1c2ccccc2nc(/C=C/c2ccc([N+](=O)[O-])o2)n1CCCO
-19%,Cc1ccc(CN2CCc3c(OCC(=O)Nc4cccc(C)c4C)cccc3C2=O)cc1
-5%,CCN(CC)c1cc(-c2ccccc2)ncn1
-6%,COc1ccc(Br)cc1-c1nc(C)c(C(C)=O)n1O
-12%,O=S(=O)(c1cccc2cccnc12)N1CCOCC1
-30%,O=C(Nc1ccc(N2CCOCC2)cc1)Nc1ccc2nc(-c3ccco3)c(-c3ccco3)nc2c1
-14%,Cc1ccc(OCC(=O)c2cc(C)n(C)c2C)c([N+](=O)[O-])n1
-21%,CCn1nccc1C(=O)NC1=C(C#N)CCC1
-12%,CCOc1ccc(C(=O)N2CCN(C(=O)c3ccco3)CC2)cc1OCC
-21%,O=C1CCCc2c1[nH]c1ccc(Br)cc21

As a short view, four of the compounds above.
HPGD inh,mol
-8%,COc1cccc([C@@H]2Oc3ccc(OC)cc3C(=O)[C@H]2OC(=O)NS(=O)(=O)c2ccc(C)cc2)c1
-13%,CC(C)(C)OC(=O)N[C@@H](Cc1ccccc1)c1nnc(SCC(=O)c2ccc(Cl)cc2)o1
-8%,COc1ccc(NC(=O)c2nn(C34CC5CC(CC(C5)C3)C4)cc2[N+](=O)[O-])cc1
0%,O=S(=O)(c1ccc(S(=O)(=O)N2CCCN(Cc3ccccc3)C2)cc1)N1CCCCCC1

New compounds follow.
HPGD inh,mol
-9%,CCN(CC(=O)NCCc1ccccc1)S(=O)(=O)c1ccc(Br)cc1
1%,COc1ccc(C(=O)NNC(=O)Nc2ccc(C)cc2)cc1
-11%,S=C(NCCc1ccccc1)Nc1ccc(Br)cc1
-8%,COCCOCC(O)CN1CCN(c2ccccc2)CC1 (configuration not stated)
-7%,Cc1csc(NC(=O)CCNC(=O)c2ccc([N+](=O)[O-])cc2)n1
-10%,O=C(c1ccc(COc2ccc3ccccc3c2)o1)N1N=C(C(F)F)CC1(O)C(F)F (configuration not stated)
?,COc1ccc(-c2ccc(-c3noc(-c4ccccc4C)n3)c(OC)n2)cc1
-11%,Cc1ccc(CCNC(=O)CCNS(=O)(=O)c2ccc3c(c2)c(=O)n(C)c(=O)n3C)cc1
?,CCC(=O)Nc1nc2nc(-c3ccccc3)cc(-c3ccccc3)n2n1
-1%,O=c1c2cnn(-c3ccccc3)c2ncn1CCc1ccccc1
-7%,O=C(NC(Cc1ccccc1)C(=O)NCc1ccccn1)c1ccco1 (configuration not stated)
-10%,COc1ccc(OC)c(C2C(C(=O)N(C)C)=C(C)Nc3nc4ccccc4n32)c1 (configuration not stated)
-26%,O=C(CCCCn1c(=O)c2ccccc2n(Cc2ccc(Cl)cc2)c1=O)NCc1ccco1
-3%,CCCCn1c(Cl)nc2c1c(=O)n(C)c(=O)n2C
?,CO/N=C/c1ccc(N2CCN(C(=O)c3ccc(Cl)cc3Cl)CC2)c([N+](=O)[O-])c1
-12%,CC(=O)N(CCCCN1C(=O)c2ccccc2C1=O)c1ccc(C)cc1
-1%,CC(=O)NCCn1c(SCC(=O)c2ccc(Cl)cc2)nc2ccccc2c1=O
-23%,Cc1cc(NC(=O)c2c(F)cccc2Cl)n(-c2nc3ccccc3[nH]2)n1
-7%,O=C1NCCN1C(=O)c1cccc(Cl)c1
-6%,CCOc1ccc(C(=S)N2CCCC2)cc1OC
-12%,Cc1c(CN(C)C(=O)CSc2nc(-c3ccco3)cc(C(F)(F)F)n2)cnn1C
-16%,O=C(CCCO)N/N=C/c1cc(Br)ccc1O
-8%,COc1ccccc1OCCn1cc(C#N)c2ccccc21
-10%,O=C(N/N=C/c1cccc(C(F)(F)F)c1)C1CCN(c2ncc(C(F)(F)F)cc2Cl)CC1
?,CCOc1ccc(S(=O)(=O)Nc2nc3cc(OC)ccc3s2)cc1

Arranged by the number under HPGD inh (smallest number first): some entries from above
HPGD inh,mol
-14%,Cc1cccc(N2CCN(C(=O)CCn3c(=O)[nH]c4ccccc4c3=O)CC2)c1C
-10%,O=C(N/N=C/c1cccc(C(F)(F)F)c1)C1CCN(c2ncc(C(F)(F)F)cc2Cl)CC1
-6%,CC(NC(=O)CSc1nnc(-c2cccc(S(=O)(=O)N3CCCCC3)c2)o1)C12CC3CC(CC(C3)C1)C2 (configuration not stated)

Remaining list, next part.
HPGD inh,mol
-20%,Cc1ccc(S(=O)(=O)C2C(=O)NC3(C)CC2c2ccccc2O3)cc1 (configuration not stated)
-2%,CC(NC(=O)Nc1nnc(C(F)(F)F)s1)(C(F)(F)F)C(F)(F)F
-8%,CC(=O)N[C@@H](C=O)[C@@H](O)[C@H](O)[C@H](O)CO
-17%,O=C(CSc1nnc(-c2ccncc2)n1Cc1ccccc1)NCCc1ccccc1
-5%,CCC(C)Nc1nc(Cl)nc(NCCOc2ccccc2)n1 (configuration not stated)
-1%,COc1ccccc1NC(=O)CSc1nnc(-c2ccc(C)cc2)o1
-10%,COCCN(Cc1cc2cc(C)cc(C)c2nc1Cl)C(=O)Nc1ccccc1
-11%,Cc1cc(C)n(-c2nc3c(c(=O)n(C)c(=O)n3C)n2C)n1
-5%,O=C(O)C1C(c2ccccc2)C(C(=O)Oc2ccccc2)C1c1ccccc1 (configuration not stated)
-15%,CN(C)C[C@H]1CCC2=C(C1=O)C(c1ccc(Cl)c(Cl)c1)C1=C(CC[C@H](CN(C)C)C1=O)O2
-18%,Cn1c(=NC(=O)C2CC2)sc2cc(F)cc(F)c21
-10%,O=C(NCCc1ccccc1Cl)C1CCN(S(=O)(=O)c2cccs2)CC1
-7%,Cc1oc(-c2ccccc2F)nc1CS(=O)(=O)CC(=O)N1CCc2ccccc21
?,CCCCOC(=O)Nc1nnc(/C=C/c2ccc(OC)cc2)s1
-20%,CCC(=O)c1cc(F)c(N2CCN(C(=O)c3ccco3)CC2)cc1C
0%,CCOC(=O)c1ccoc1CSCC(=O)N1CCN(S(=O)(=O)c2ccc(C)cc2)CC1
-7%,CC1CN(C(=O)C2(C)CC2(Cl)Cl)CC(C)O1 (configuration not stated)
-20%,Cc1ccc(C(=O)n2nc(-c3cccnc3)nc2N)cc1
-2%,COc1ccc(C(=O)NCc2nnc(SCC(=O)N3CCc4ccccc43)o2)cc1OC
-17%,c1cc2c3c(c1)c1c(n3CCNC2)CCCC1
-4%,Cn1c(=O)[nH]c(=O)c2c1nc(Br)n2CC(O)COCc1ccccc1 (configuration not stated)
1%,COc1ccc(S(=O)(=O)N2CCC(C(=O)NCc3ccccn3)CC2)cc1OC
-23%,CC(=O)NC(=S)c1c(N)n(Cc2ccccc2)c(=O)n(C)c1=O
8.9µM*,CNCc1ccccc1Sc1cc(O)ccc1O
-5%,CCC(=O)Oc1ccc(C2N(C(=O)CC)CCN2S(=O)(=O)c2ccc(C)cc2)cc1OC (configuration not stated)
?,COc1cc(NS(=O)(=O)c2ccc(N/C=C\C(=O)c3ccc(F)cc3)cc2)nc(OC)n1

Retrieved one by one from the entries so far, seven records:
HPGD inh,mol
-7%,CC1CN(C(=O)C2(C)CC2(Cl)Cl)CC(C)O1 (configuration not stated)
-10%,O=C(NCCc1ccccc1Cl)C1CCN(S(=O)(=O)c2cccs2)CC1
-4%,Cn1c(=O)[nH]c(=O)c2c1nc(Br)n2CC(O)COCc1ccccc1 (configuration not stated)
1%,COc1ccc(S(=O)(=O)N2CCC(C(=O)NCc3ccccn3)CC2)cc1OC
-20%,Cc1ccc(S(=O)(=O)C2C(=O)NC3(C)CC2c2ccccc2O3)cc1 (configuration not stated)
-1%,COc1ccccc1NC(=O)CSc1nnc(-c2ccc(C)cc2)o1
-2%,COc1ccc(C(=O)NCc2nnc(SCC(=O)N3CCc4ccccc43)o2)cc1OC
